Compound activity: PubChem, several laboratories
UCH37 inh: inhibitors of human deubiquitinating enzyme UCH37. purified proteasome/UCH37, Ub-AMC cleavage fluorescence. inhibition, % (no concentration beside the values). actives 0.33% (n = 330,000);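 active means mean of two replicates above 20%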;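 further: 0% = compound-free wells with enzyme and 100% = wells lacking proteasome; stock transfer was 100 nL into about 20 µL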
Target sequence (Q9Y5K5 whole entry, looked up): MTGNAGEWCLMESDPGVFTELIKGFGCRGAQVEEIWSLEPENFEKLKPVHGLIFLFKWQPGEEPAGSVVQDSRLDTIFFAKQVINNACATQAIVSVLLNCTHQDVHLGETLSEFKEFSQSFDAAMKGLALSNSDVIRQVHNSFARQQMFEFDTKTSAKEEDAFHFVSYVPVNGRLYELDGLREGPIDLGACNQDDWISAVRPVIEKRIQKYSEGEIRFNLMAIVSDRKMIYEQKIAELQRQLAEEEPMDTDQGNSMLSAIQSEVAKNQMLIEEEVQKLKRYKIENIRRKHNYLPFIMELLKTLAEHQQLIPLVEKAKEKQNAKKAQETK
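system = Proteasome-associated human UCH37 deubiquitinase | amount = 0.15 nM proteasome as dispensed | medium = pH 7.4 Tris-HCl (50 mM) with ovalbumin, ATP-MgCl2, DTT | incubation = 30 min preincubation with enzyme, 25 min cleavage at room temperature | detection = AMC fluorescence 355/460 nm | read-out basis = percent inhibition | controls = no-proteasome and no-compound wells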
Beta cell apopt: beta cell apoptosis inhibition. protection from apoptosis, % (no concentration beside the values). INS-1E cytokine-induced death, ATP luminescence, 48 h; percent of positive-control rescue, neutral wells zero. actives 0.8% (n = 300,000);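 active means all replicates at 75% or more, or half of them and the mean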;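 further: 0% = cytokine-treated negative control wells and 100% = positive control rescue; higher means more ATP so stronger rescue from cytokine killing; wells of about 40 µL received 100 nL stock; the first replicate is given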
E coli growth: blocks Escherichia coli growth | OD600, 23 h; active compounds read low | OD600 absorbance (no concentration beside the values) | actives 0.21% (n = 330,000);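 active means OD600 absorbance below the run mean of sample wells minus 3.6 SD, in any replicate, cut at about 0.56 in these data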;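 further: stock transfer was 300 nL into about 60 µL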
A1 inh: inhibitors of the anti-apoptotic protein A1, read as caspase activation; MEF A1-2A-BIM cells, Caspase-Glo 3/7 luminescence, 3 h; percent of clofoctol response, vehicle zero; caspase activation, % (no concentration beside the values); actives 0.066% (n = 330,000); AID 2462;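 active means over half of replicate activation scores above 10%, or exactly half above 10 with the replicate mean above 10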;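 further: wells of about 30 µL received 50 nL stock; many hits fall short of the cut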
MLL AF4-AF9 inh: blocks AF4 peptide binding to human AF9. P42568. AlphaScreen, biotin-AF4 peptide binding to FLAG-AF9. inhibition, % at 10 µM. actives 0.47% (n = 350,000). AID 651704;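 active means every replicate reaching a set inhibition limit, whatever the replicate mean, cut at about 25% in these data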;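 further: 0% = plate neutral control median and 100% = total signal loss; the record names both 10 and 1 µM as test concentration; the first replicate is given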
Target sequence (P42568 whole entry, looked up): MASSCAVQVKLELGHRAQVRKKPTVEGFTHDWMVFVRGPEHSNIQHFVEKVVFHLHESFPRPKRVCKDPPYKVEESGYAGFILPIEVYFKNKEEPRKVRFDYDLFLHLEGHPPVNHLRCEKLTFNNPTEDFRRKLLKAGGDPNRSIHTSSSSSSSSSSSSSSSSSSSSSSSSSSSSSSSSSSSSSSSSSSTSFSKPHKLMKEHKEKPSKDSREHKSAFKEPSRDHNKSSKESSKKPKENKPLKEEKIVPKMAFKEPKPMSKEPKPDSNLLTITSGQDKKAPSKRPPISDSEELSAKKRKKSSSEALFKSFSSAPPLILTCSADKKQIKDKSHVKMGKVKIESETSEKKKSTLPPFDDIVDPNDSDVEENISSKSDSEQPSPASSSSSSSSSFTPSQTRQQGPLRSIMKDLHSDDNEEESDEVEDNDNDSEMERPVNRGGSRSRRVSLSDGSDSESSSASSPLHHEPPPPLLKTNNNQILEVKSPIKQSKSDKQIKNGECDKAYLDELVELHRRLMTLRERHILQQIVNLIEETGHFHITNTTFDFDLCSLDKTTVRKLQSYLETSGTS
FGF22 binding: binders of recombinant human FGF22 by thermal shift; SYPRO orange fluorescence; percent of sucrose octasulfate shift, DMSO zero; AID 651658; calls only at 9.99 µM; actives 1.5% (n = 340,000); Q9HCT0;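 active means melting point raised past a set limit in the mean and every replicate; three in four hits are not shown here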
Target sequence (Q9HCT0 whole entry, looked up): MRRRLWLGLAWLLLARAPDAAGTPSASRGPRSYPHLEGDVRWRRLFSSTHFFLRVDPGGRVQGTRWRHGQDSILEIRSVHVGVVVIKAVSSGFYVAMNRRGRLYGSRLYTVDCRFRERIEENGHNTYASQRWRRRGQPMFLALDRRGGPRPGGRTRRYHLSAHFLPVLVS
T cruzi inh: blocks replication of Trypanosoma cruzi; AID 1885; inhibition, % (no concentration beside the values); actives 1.4% (n = 300,000); T. cruzi beta-gal in NIH3T3, luminescence, 90 h;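 active means mean inhibition across valid replicates above about 55%, limit read from the data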;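 further: signal also drops with host cell toxicity which is not excluded here; 0% = plate median of DMSO wells and 100% = zero luminescence signal; higher percent means less beta-gal luminescence so fewer parasites; stock transfer was 50 nL into about 50 µL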
rRNA inh HTS: selective bacterial rRNA inhibition in E. coli; E. coli WT GFP vs humanized-ribosome RFP mutants, fluorescence, 24 h; active compounds read low; DMSO median 0, no signal -100; GFP signal change (wild-type ribosome), % (test concentration not listed); actives 1.6% (n = 350,000); AID 720706;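 active means significant combined selectivity score with lowered wild-type GFP, culture density cut under 30%, mutant RFP and density less affected; inactive means any of these conditions unmet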; further: one replicate is shown; some compounds called inactive have numbers as strong as hits
rRNA inh HTS OD600: also measured in rRNA inh HTS; calls as there; OD600 change, %; measured here: OD600 growth;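 optical density of the mix in the first replicate; 0 = DMSO median and -100 = no signal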
rRNA inh HTS RFP: second read-out of rRNA inh HTS, no call of its own (marks repeat the call); RFP signal change, %; measured here: RFP humanized mutant strains;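 first replicate; 0 = DMSO median and -100 = no signal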
Starred values were filed as active, the others as inactive. An excerpt (hit frequency here may not be typical).

For COc1ccccc1NC(=O)CS(=O)(=O)c1cn(CC(=O)N2CCCC2)c2ccccc12 the results were UCH37 inh -1.3, E coli growth 0.724, A1 inh 1.9, MLL AF4-AF9 inh -1.0, FGF22 binding inactive and T cruzi inh 7.9.
For CCN(c1ccccc1)S(=O)(=O)c1ccc(Cl)c(NC(=O)CSc2n[nH]c(N)n2)c1 the results were UCH37 inh 3.8, Beta cell apopt -9.3, E coli growth 0.658, A1 inh -0.4, MLL AF4-AF9 inh -4.9, FGF22 binding inactive, T cruzi inh -4.9, rRNA inh HTS -19.5*, rRNA inh HTS OD600 -15.2* and rRNA inh HTS RFP 1.8*.
For CC1(C)CC(=O)C(C2C3=C(CC(C)(C)CC3=O)Oc3ccccc32)=C(O)C1 (centres undefined) the results were UCH37 inh 1.7, Beta cell apopt -5.9, E coli growth 0.75, A1 inh 1.6 and T cruzi inh 1.9.
For CCC1SC(N)=NC1=O (centres undefined) the results were UCH37 inh -3.8, Beta cell apopt 1.7, E coli growth 0.74, A1 inh -0.1 and T cruzi inh 1.7.
`COc1ccc2nc(NC(=O)CCc3cc(OC)c(OC)c(OC)c3)sc2c1` gave UCH37 inh 3.3, Beta cell apopt -3.7, E coli growth 0.677, A1 inh 1.0, MLL AF4-AF9 inh 0.3, FGF22 binding active, T cruzi inh 10.4, rRNA inh HTS -33.2, rRNA inh HTS OD600 -32.3 and rRNA inh HTS RFP -4.4.
`CCC1N=C(SC)NC(C)=C1C(=O)c1ccccc1` (centres undefined) gave UCH37 inh 7.1, Beta cell apopt -10.4, E coli growth 0.616, A1 inh -0.6, MLL AF4-AF9 inh 1.7, FGF22 binding inactive, T cruzi inh 35.8, rRNA inh HTS 5.0, rRNA inh HTS OD600 6.4 and rRNA inh HTS RFP 0.4.
For Cc1ccc(OCC(=O)Nc2ccccc2F)cc1 the results were UCH37 inh 2.0, Beta cell apopt -5.1, E coli growth 0.636, A1 inh -5.4, MLL AF4-AF9 inh -2.5, FGF22 binding inactive, T cruzi inh -20.2, rRNA inh HTS 8.7, rRNA inh HTS OD600 12.9 and rRNA inh HTS RFP -0.4.
CC(Cc1ccccc1)NC(=O)c1ccc([N+](=O)[O-])cc1 (centres undefined) was read as UCH37 inh 4.7, Beta cell apopt -10.1, E coli growth 0.701, A1 inh 0.4 and T cruzi inh -1.1.
Screening COc1cc(OC)c(C(=O)OCC(=O)NC2CCCC2)cc1OC returned UCH37 inh 0.8, Beta cell apopt 1.2, E coli growth 0.682, A1 inh 0.6, MLL AF4-AF9 inh -2.3, FGF22 binding inactive, T cruzi inh -6.8, rRNA inh HTS 4.6, rRNA inh HTS OD600 12.6 and rRNA inh HTS RFP 1.6.
COc1ccc(CNC(=O)CN2C(=O)NC(C)(c3cccc4ccccc34)C2=O)cc1OC (centres undefined) was read as UCH37 inh 2.0, Beta cell apopt -1.1, E coli growth 0.655, A1 inh 0.1, MLL AF4-AF9 inh -5.2, FGF22 binding inactive, T cruzi inh -17.1, rRNA inh HTS -0.3, rRNA inh HTS OD600 1.8 and rRNA inh HTS RFP -0.9.
Screening COc1ccc(CNC(=O)Cn2cccc2C(=O)c2ccccc2C)cc1 returned UCH37 inh 1.3, Beta cell apopt -4.5, E coli growth 0.661, A1 inh 2.6, MLL AF4-AF9 inh 0.2, FGF22 binding inactive, T cruzi inh -3.5, rRNA inh HTS -16.4, rRNA inh HTS OD600 -8.1 and rRNA inh HTS RFP 2.9.
Screening Cc1[nH]n(-c2cccc(Cl)c2)c(=O)c1C=NCc1ccco1 returned UCH37 inh 0.9, Beta cell apopt -3.5, E coli growth 0.686, A1 inh -6.9, MLL AF4-AF9 inh 0.7, FGF22 binding inactive, T cruzi inh -9.1, rRNA inh HTS 5.2, rRNA inh HTS OD600 -0.8 and rRNA inh HTS RFP 1.8.
Screening Cc1ccc(S(=O)(=O)N(C)C)cc1NC(=O)CN1C(=O)NC2(CCCCCCC2)C1=O returned UCH37 inh -0.3, Beta cell apopt -6.2, E coli growth 0.634, A1 inh 0.9, MLL AF4-AF9 inh -1.4, FGF22 binding inactive, T cruzi inh -7.2, rRNA inh HTS 0.8, rRNA inh HTS OD600 -1.2 and rRNA inh HTS RFP 1.0.
For CCOCCCNC(=O)N[C@@H](C)C(=O)OC the results were UCH37 inh 4.9, Beta cell apopt -5.6, E coli growth 0.713, A1 inh 1.0 and T cruzi inh 0.1.
Cn1c(SCC(=O)N/N=C/c2cc([N+](=O)[O-])ccc2O)nnc1-c1ccccc1 was read as Beta cell apopt 8.2, A1 inh 0.9, MLL AF4-AF9 inh -1.1, FGF22 binding inactive, T cruzi inh 30.4, rRNA inh HTS 5.9, rRNA inh HTS OD600 8.8 and rRNA inh HTS RFP -0.4.
For CCCCN(CC)CCNC(=O)CN(C)S(=O)(=O)c1ccc2c(c1)c(=O)n(C)c(=O)n2C the results were UCH37 inh 1.3, Beta cell apopt -5.5, E coli growth 0.655, A1 inh 0.6 and T cruzi inh 5.5.
COc1cc(C(=O)Nc2nnc(-c3sccc3C)s2)cc(OC)c1OC was read as UCH37 inh -50.7, Beta cell apopt 2.4, E coli growth 0.744, A1 inh 0.0 and T cruzi inh -9.2.
`CCC(CC)NC(=O)CSc1ccc(S(=O)(=O)N2CCCCC2)cn1` gave UCH37 inh 1.7, E coli growth 0.578, MLL AF4-AF9 inh -13.2, FGF22 binding inactive, rRNA inh HTS 6.9, rRNA inh HTS OD600 1.7 and rRNA inh HTS RFP -0.1.
O=C(Nc1cccnc1)C1CCC(CNS(=O)(=O)c2cccc3nsnc23)CC1 (centres undefined) was read as UCH37 inh 2.9, Beta cell apopt -2.4, E coli growth 0.649, A1 inh 0.6, MLL AF4-AF9 inh 1.4, FGF22 binding inactive, T cruzi inh -15.1, rRNA inh HTS 2.9, rRNA inh HTS OD600 -0.7 and rRNA inh HTS RFP 0.4.
Screening COc1ccc(S(=O)(=O)N2N=C(c3cccc(NS(C)(=O)=O)c3)CC2c2ccco2)cc1 (centres undefined) returned UCH37 inh 4.0, Beta cell apopt -3.8, E coli growth 0.699, A1 inh 0.7, MLL AF4-AF9 inh 7.3, FGF22 binding inactive, T cruzi inh 11.7, rRNA inh HTS -0.8, rRNA inh HTS OD600 -25.8 and rRNA inh HTS RFP 5.2.
For CCOC(=O)C1CCN(C(=O)c2c(-c3c(Cl)cccc3Cl)noc2C)CC1 the results were UCH37 inh 2.8, Beta cell apopt -5.6, E coli growth 0.657, A1 inh 0.4 and T cruzi inh -9.8.
`COc1cccc(C(=O)OCC(=O)c2c[nH]c3ccccc23)c1OC` gave UCH37 inh 1.9, Beta cell apopt 0.3, E coli growth 0.644, A1 inh -1.9, MLL AF4-AF9 inh -4.5, FGF22 binding inactive, rRNA inh HTS -19.5, rRNA inh HTS OD600 -30.5 and rRNA inh HTS RFP -1.5.
`COC(=O)c1ccc(NC(=O)c2ccccc2N(C)S(C)(=O)=O)cc1` gave UCH37 inh 2.0, Beta cell apopt 1.5, E coli growth 0.773, A1 inh 0.5 and T cruzi inh -12.0.
Screening COc1ccccc1Cn1c(=O)c2ccccc2n2c(SCC(=O)N3CCCCC3)nnc12 returned UCH37 inh 0.5, E coli growth 0.696, A1 inh 1.0, MLL AF4-AF9 inh -2.0, FGF22 binding inactive, T cruzi inh 11.9, rRNA inh HTS 9.5, rRNA inh HTS OD600 14.0 and rRNA inh HTS RFP -10.9.
CNC(=O)CN(C)S(=O)(=O)c1ccc(F)cc1 was read as UCH37 inh -1.0, Beta cell apopt -5.7, E coli growth 0.731, A1 inh -0.4 and T cruzi inh -13.1.
Screening COc1ccc(N2CC(C)Cn3c2nc2c3c(=O)n(Cc3ccccc3F)c(=O)n2C)c(OC)c1 (centres undefined) returned UCH37 inh 1.1, Beta cell apopt 7.0, E coli growth 0.659, A1 inh 1.7 and T cruzi inh 9.9.
CCCn1c(Nc2ccc(Cl)cc2)nc2ccccc21 was read as UCH37 inh 2.9, Beta cell apopt 3.5, E coli growth 0.712, A1 inh 1.1, T cruzi inh -8.8, rRNA inh HTS 3.2, rRNA inh HTS OD600 13.5 and rRNA inh HTS RFP -3.0.
O=C(Nn1c(Cc2cccs2)nc2ccccc2c1=O)c1cccs1 was read as UCH37 inh 1.8, Beta cell apopt 3.1, E coli growth 0.715, A1 inh 0.2 and T cruzi inh -9.0.
Screening Cc1ccc(C(=O)NNC(=O)c2cccc3ccccc23)cc1 returned UCH37 inh -0.2, E coli growth 0.679, MLL AF4-AF9 inh 8.5, FGF22 binding inactive, rRNA inh HTS -11.0, rRNA inh HTS OD600 -4.9 and rRNA inh HTS RFP 2.3.
`Cc1ccc(CC(=O)Nc2ccc(C(=O)N3CCCCC3)cc2)cc1` gave Beta cell apopt 9.9, A1 inh 0.3, MLL AF4-AF9 inh 0.2, FGF22 binding inactive, T cruzi inh -6.5, rRNA inh HTS 2.2, rRNA inh HTS OD600 -1.8 and rRNA inh HTS RFP 1.8.
`Cc1noc(NS(=O)(=O)c2ccc(NC(=O)CS(=O)(=O)c3ccccc3)cc2)c1C` gave UCH37 inh 3.1, Beta cell apopt 8.0, E coli growth 0.694, A1 inh 0.6 and T cruzi inh -9.7.
For C=CCNc1oc(-c2ccco2)nc1S(=O)(=O)c1ccccc1 the results were UCH37 inh 1.5, E coli growth 0.728, A1 inh 0.7, MLL AF4-AF9 inh 0.2, FGF22 binding inactive, T cruzi inh -7.8, rRNA inh HTS -12.9, rRNA inh HTS OD600 -14.2 and rRNA inh HTS RFP -1.8.
`O=C(CN1CCCCC1)N/N=C/c1ccc(Cl)cc1` gave Beta cell apopt -1.6, A1 inh 0.2, MLL AF4-AF9 inh 0.3, FGF22 binding inactive, T cruzi inh -3.0, rRNA inh HTS 8.2, rRNA inh HTS OD600 1.0 and rRNA inh HTS RFP -2.3.
For CCOC(=O)N1CCC(Nc2nc3ccccc3nc2NS(=O)(=O)c2ccc(Cl)cc2)CC1 the results were UCH37 inh -15.5, Beta cell apopt 19.0, E coli growth 0.666, A1 inh 0.1 and T cruzi inh -8.2.
Screening CCC(Sc1nc(C)cc(C)n1)C(=O)Nc1ccc(S(N)(=O)=O)cc1 (centres undefined) returned UCH37 inh 0.9, Beta cell apopt -7.7, E coli growth 0.69, A1 inh -0.4, MLL AF4-AF9 inh 1.1, FGF22 binding inactive, T cruzi inh -3.2, rRNA inh HTS -3.3, rRNA inh HTS OD600 -4.9 and rRNA inh HTS RFP -2.6.
`CCCCN1CC[C@H]2C=CC[C@@H](C(=O)Nc3ccccc3)[C@H]2C1=O` gave UCH37 inh 4.7, Beta cell apopt -1.3, A1 inh 0.2, MLL AF4-AF9 inh -26.8, FGF22 binding inactive, T cruzi inh -10.2, rRNA inh HTS -2.7, rRNA inh HTS OD600 -8.8 and rRNA inh HTS RFP -3.8.
